VDR inhibitor – inhibitors of human vitamin D receptor. actives 0.93% (n = 400,000). VDR-SRC2-3 peptide fluorescence polarization, 2 h. Potency, µM, for inactives: max response, negative = inhibition, usual class: inhibitors. P11473; active means well fitted inhibition curve with a large enough effect; inconclusive means small, poorly fitted or top-dose-only effect, or another doubt; inactive means no such curve, though single readings can be large or run the other way; further: series mostly up to about 120 µM
Target sequence (P11473 whole entry, looked up): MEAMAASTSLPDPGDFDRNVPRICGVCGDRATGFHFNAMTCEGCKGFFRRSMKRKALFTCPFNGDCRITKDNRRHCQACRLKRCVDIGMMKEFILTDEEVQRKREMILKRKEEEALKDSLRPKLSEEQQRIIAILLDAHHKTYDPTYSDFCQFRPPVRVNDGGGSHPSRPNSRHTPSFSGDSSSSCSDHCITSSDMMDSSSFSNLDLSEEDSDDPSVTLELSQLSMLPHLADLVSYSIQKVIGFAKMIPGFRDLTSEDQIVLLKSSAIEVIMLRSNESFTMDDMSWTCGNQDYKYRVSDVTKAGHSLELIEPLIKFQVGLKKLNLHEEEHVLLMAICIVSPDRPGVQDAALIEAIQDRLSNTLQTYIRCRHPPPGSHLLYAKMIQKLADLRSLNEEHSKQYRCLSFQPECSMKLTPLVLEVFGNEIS
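Two reagent solutions held at 4 deg C in the dark were dispensed, compounds pinned at 23 nl, and the mixture incubated 2 h at room temperature. Read-out: fluorescence polarization of VDR–SRC2-3 peptide binding.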
Active calls of the source: *; ? = inconclusive; & = joins results of further samples; [ ] = remark or other dose. On the % scale 0 is the no-effect control and ±100 the full control effect; potency means the concentration at half of the fitted maximal effect. This is a subset; count on the stated rates, not on these rows.

Compound	VDR inhibitor
CC(=O)N1CCC(C(=O)N2CCN(S(=O)(=O)c3ccc(F)cc3)CC2)CC1	-16.7%
O=C(OCc1ccccc1F)c1cnc(Cl)c(Cl)c1	-9.7%
CCCNS(=O)(=O)c1cccc(C(=O)NC2CCCc3ccccc32)c1 (centres undefined)	-10.7%
Cc1cccc(CC(C)NC(=O)CCc2nnc(CCCCc3ccccc3)o2)n1 (centres undefined)	11.4%
Cc1ccc(OCCNC(=O)CNC(=O)c2ccccc2Cl)cc1	-7.9%
COc1ccc(CNC(=O)C(C)N2Cc3ccccc3C2=O)cc1 (centres undefined)	19.2%
CCOc1ccc(NC(=O)Cn2ncc3ccccc32)cc1	3.9%
O=C(COc1ccc(F)cc1)NCc1ccc2c(c1)CCN2C(=O)c1ccc(F)cc1	10.7%
Cc1ccc(C)c(Nc2cc(C)nc(-c3ccccc3O)n2)c1	5.8%
COc1ccc(CC(=O)NNc2ncnc3c2cnn3Cc2ccccc2)cc1OC	-21.2%
CCOC(=O)N1CCN(Cc2cccs2)CC1	-18.1%
COCCSc1nnc(NC(=O)CS(=O)(=O)c2ccc(C)cc2)s1	0.3%
O=C(c1ccc([N+](=O)[O-])cc1)N1CCSC1c1ccc(Cl)cc1 (centres undefined)	-13.9%
CCc1nn(-c2ccccc2)c(=S)c2ccccc12	12.1%
CCCOc1ccc(/C=N/n2nnnc2N)cc1OC	6.2%
CN(C)CCCN(C(=O)CCc1ccccc1)c1nc2ccc(F)cc2s1	4.6%
CC(C)c1ccc(NC(=O)Cn2nnc(C(=O)NCc3ccc4c(c3)OCO4)c2N)cc1	7.1%&13.7%
Cc1ccc(S(=O)(=O)Cc2nc(-c3ccc(C(=O)NCCCOC(C)C)cc3)oc2C)cc1	21.5%
COc1ccc(-c2nnc(SC(C)C(=O)Nc3c(C)n(C)n(-c4ccccc4)c3=O)o2)cc1 (centres undefined)	-16.3%
CCOC(=O)c1cccc(NC(=O)C2CCN(S(=O)(=O)c3cccs3)CC2)c1	7.1%

Molecules shown so far with an aryl methoxy group:
Compound	VDR inhibitor
COc1ccc(CNC(=O)C(C)N2Cc3ccccc3C2=O)cc1 (centres undefined)	19.2%
COc1ccc(CC(=O)NNc2ncnc3c2cnn3Cc2ccccc2)cc1OC	-21.2%
CCCOc1ccc(/C=N/n2nnnc2N)cc1OC	6.2%
COc1ccc(-c2nnc(SC(C)C(=O)Nc3c(C)n(C)n(-c4ccccc4)c3=O)o2)cc1 (centres undefined)	-16.3%

Additional records:
Compound	VDR inhibitor
CC(NC(=O)COC(=O)COc1ccc(Cl)cc1)c1ccccc1 (centres undefined)	14.5%
CCOc1cccc(C(=O)Nc2ccc(N(CC)CC)cc2)c1	-5.7%
COc1ccc(O)c(-c2cc(-c3cccc(Br)c3)n[nH]2)c1	6.5%
Cc1cccc(Cn2c(CNC(=O)c3ccccc3)nc3ccccc32)c1	14.5%
COc1ccc(CN(C)C(=O)c2ccccc2OCc2c(C)noc2C)c(OC)c1	-2.8%
CCC(Sc1nc2cc(OC)c(OC)cc2c(=O)n1Cc1ccc(OC)cc1)C(=O)NCCOC (centres undefined)	17.0%&5.4%
NS(=O)(=O)c1ccc(N/N=C2/CCCc3ccccc32)c([N+](=O)[O-])c1	-10.7%
CCN(c1c(C)n(C)n(-c2ccccc2)c1=O)S(C)(=O)=O	-12.8%
Fc1ccccc1NC(=S)Nn1cnnc1	?
CCOC(=O)NC(=O)CSc1nc(C)cc(C)c1C#N	6.3%
CCOc1cccc(C(=O)Nc2ccccc2OC(F)F)c1	3.4%
CCOc1cc(/C=N/O)ccc1OCC(=O)Nc1cccc(C)c1	-3.4%
COc1ccccc1N=Nc1ccc(N)c(C)c1	-0.4%
CC(NC(=O)CC12CC3CC(CC(C3)C1)C2)C(=O)O (centres undefined)	-4.0%
C=CCOCC(O)CS(=O)(=O)Cc1ccc(Cl)cc1 (centres undefined)	5.6%
CCC(=O)c1ccccc1OCCN1C(=O)NC(C)(C)C1=O	14.0%
O=C(CN1C(=O)CC(c2ccco2)Sc2ccccc21)NC1CCCCC1 (centres undefined)	-27.1%
CCOC(=O)/C(C#N)=N/Nc1ccc(S(=O)(=O)N2CCc3ccccc32)cc1	-14.5%
CS(=O)(=O)N(CC(=O)N/N=C/c1ccc(OCC(=O)N2CCOCC2)cc1)c1ccccc1Cl	-2.4%
COc1cccc(C(=O)Oc2ccc3ccc(=O)oc3c2)c1	-4.3%
Cc1ccc(-c2csc(-c3c[nH]c4ccccc34)n2)c(C)c1	-19.3%
CC(=O)N1CCN(CC(O)COc2ccc(S(=O)(=O)N3CCOCC3)cc2)CC1 (centres undefined)	-3.3%
COc1c(Cl)cc(C(=O)Nc2cccc(-c3nc4ccccc4[nH]3)c2)cc1Cl	4.9%
CCCCc1c(O)nc2sc3cc(OC)ccc3n2c1=O	-14.8%
C=CCN1C(=O)c2ccc(C(=O)NCCOc3ccccc3F)cc2C1=O	-21.2%
O=C(Cc1cccs1)Nc1nnc(SCc2cccc3ccccc23)s1	7.6%
Cc1cccc(NC(=O)c2cc([N+](=O)[O-])ccc2N2CCN(C)CC2)c1	10.4%
Cc1cccc(C2C=C(c3ccc(F)cc3)Nc3nc4ccccc4n32)c1 (centres undefined)	13.0%
O=C(COc1ccccc1F)Nc1ccc2c(c1)CCC2	-23.3%
C/C(=N\NC(=O)CCc1ccc(S(=O)(=O)N2CCOCC2)cc1)c1ccc(Br)cc1	7.8%
Cc1cc(Cl)ccc1OCC(=O)NNC(=O)c1ccc(=O)[nH]c1	-5.0%
CCN(Cc1ccccc1)C(=O)C1CCC(CNc2c(N3CCOCC3)c(=O)c2=O)CC1 (centres undefined)	-0.7%
COC(=O)c1cn(NC(=O)Cc2ccc(Cl)c(Cl)c2)c(=O)c2ccccc12	5.7%
O=C(NNC1=NC2(CCCC2)Cc2ccccc21)c1ccncc1	-7.7%
O=C(CSc1nc(=O)n(CCCN2CCOCC2)c2c1CCCC2)Nc1cccc(Cl)c1	-17.9%
CC1(C)C(=O)OC(C(=O)c2ccc(Cl)cc2)C(C)(C)C1=O (centres undefined)	-2.4%
CSc1nc2c(c(=O)n1C)SC(C)C2 (centres undefined)	-6.0%
Nc1ccccc1C(=O)NCc1ccc(F)cc1	-23.4%
O=C(OCc1nnc(-c2ccccc2)o1)c1cccnc1Cl	19.0%
CCOC(=O)C(=O)/C(=C\N(C)C)c1onc(-c2ccccc2)c1C(=O)OC	-2.0%
COc1ccc(S(=O)(=O)/N=C2/NC(=O)/C(=C\c3ccco3)S2)cc1	-6.3%
C=CCN(CC(O)c1cccc([N+](=O)[O-])c1)C(C)CCc1ccccc1 (centres undefined)	4.9%
NNC(=O)c1csc(-c2cccc(C(F)(F)F)c2)n1	-14.0%
CC(C(=O)Nc1nccs1)N1C(=O)C2CC=CCC2C1=O (centres undefined)	-2.2%
O=C(/C=C/c1cccs1)NC1CC1	-13.5%
Cc1cc(C)n(CCNS(=O)(=O)c2ccc(Cl)cc2)n1	4.2%
C=CCON/C(CCC)=C1\C(=O)CC(C)(C)CC1=NC	-5.6%
CC(C)(C)NC(=O)COc1ccc(CNn2nnnc2N)cc1	4.5%
COc1cc(OC)c2c(=O)c(-c3ccccc3)coc2c1	-2.1%
COc1ccccc1C(=O)NCCC(=O)Nc1nc2ccccc2[nH]1	-9.3%
COC(=O)[C@H](Cc1ccccc1)NC(=O)O[C@@H]1C(=O)c2ccc(OC)cc2O[C@H]1c1cccc(C(F)(F)F)c1	6.0%
Cc1cc(C)n(-c2n[nH]c(C)c2[N+](=O)[O-])n1	-6.2%
COc1ccc([C@@H]2CC=C(C(=O)O)[C@H](c3ccc(Cl)cc3)N2S(=O)(=O)c2ccc(C)cc2)cc1OC	-6.3%
O=C(NCc1ccc(F)cc1)c1ccc(N2CCc3ccccc32)c([N+](=O)[O-])c1	?
Cc1cc(C)cc(NC(=O)CCCn2c3ccccc3c(=O)c3ccccc32)c1	26.4%
Cc1cccc(NC(=O)N2CCCC(CNC(=O)c3ccccc3Cl)C2)c1C (centres undefined)	10.1%
CC(=O)c1ccc(N2CCN(C(=S)Nc3ccc(Cl)c(Cl)c3)CC2)cc1	3.4%
CCOc1ccc(N2CC(C(=O)NCc3ccccn3)CC2=O)cc1 (centres undefined)	7.3%
CCOC(=O)N1CCN(CC(=O)Nc2ccc(C)cc2)CC1	2.8%
CC(C)CC(=O)NS(=O)(=O)c1ccc(NS(C)(=O)=O)cc1	3.0%

Grouped by structure, those above containing a CF3 group (two)
Compound	VDR inhibitor
NNC(=O)c1csc(-c2cccc(C(F)(F)F)c2)n1	-14.0%
COC(=O)[C@H](Cc1ccccc1)NC(=O)O[C@@H]1C(=O)c2ccc(OC)cc2O[C@H]1c1cccc(C(F)(F)F)c1	6.0%

The listing continues.
Compound	VDR inhibitor
CC(=O)N1c2ccccc2C2(C)C(C1(C)C)C2(Cl)Cl (centres undefined)	2.6%
Cc1cccn2c(=O)nc(SCC(=O)NCc3ccc(F)cc3)nc12	18.0%
O=C(COC(=O)C1=COCCO1)NC1CCCCCCC1	-2.9%
CCN(C(=O)[C@@H]1CCCN1C(=O)c1cccs1)c1nc2cc(Cl)ccc2s1	0.3%
COc1ccc(NC(=S)NC2CC3CCC(C2)N3Cc2ccco2)cc1 (centres undefined)	15.6%
COc1ccccc1N(C(=O)c1ccco1)C(C(=O)NC1CCCC1)c1cccnc1 (centres undefined)	8.0%
Cc1ccc(-c2nc3sc(C#N)c(N)n3c(=O)c2C#N)cc1	-17.9%
O=C(CSc1nnc(-c2ccco2)o1)Nc1c(F)cccc1F	-2.9%
CCN(CC)C(=O)Cn1c(C)c(/C=C/c2cc[n+](C)cc2)c2ccccc21	0.5%
N#CCC(=N)N1CCN(c2ccc(Cl)cc2)CC1	0.5%
COCCNC(=S)NCCCNc1nc2cc3c(cc2cc1C#N)OCO3	-15.4%
CCOc1ccc2nc(SCC(=O)N3CCN(C(=O)c4ccco4)CC3)sc2c1	-7.5%
Cc1ccccc1N(CC(=O)NC1CCCCC1)C(=O)CCCC(=O)Nc1ccccn1	-9.3%
O=C(NC1CCN(S(=O)(=O)c2ccccc2F)CC1)c1ccco1	-12.9%
O=C(c1cccc(C(=O)N2CCN(c3ccccc3F)CC2)n1)N1CCN(c2ccccc2F)CC1	3.2%
S=C(NC1CCCC1)N1CCN(c2ncccn2)CC1	14.5%
Cc1ccccc1CS(=O)(=O)c1nnc([C@H](CC(C)C)NC(=O)OC(C)(C)C)o1	20µM*
CC(=O)NC(Cc1c[nH]c2ccccc12)C(=O)NCCc1ccccn1 (centres undefined)	-8.8%
COc1ccc(-c2c(C#CC(C)(C)O)c3ccccc3n2C)cc1	11.4%
Cc1ccc(/C=C/C(=O)OCC(=O)NCCN2C(=O)CSC2=O)o1	-12.9%
O=C(O)c1nn(-c2ccccc2)ccc1=O	-11.7%
COc1ccc(NC2CCCN(C(=O)c3ccncc3)C2)cc1 (centres undefined)	5.6%
Cc1c(Cl)cccc1NC(=S)NN1CCOCC1	-0.3%
CN1CCC(NCCC(c2ccc(F)cc2)c2ccc(Cl)cc2)CC1 (centres undefined)	76.2%[activator]
O=C1CCC(C(=O)Nc2ccccc2)N1 (centres undefined)	0.7%
C=CCN(CC(=O)NC1CCS(=O)(=O)C1)S(=O)(=O)c1ccccc1C(F)(F)F (centres undefined)	4.6%
COc1ccc(C(=O)NCCCNC(=O)c2ccccn2)cc1	4.8%
CCOC(=O)C1=C(C)NC2=C(C(=O)CC(C)(C)C2)C1c1coc2ccccc2c1=O (centres undefined)	11.9%
CCc1c(C)sc(NC(NC(C)=O)(C(=O)OC)C(F)(F)F)c1C#N (centres undefined)	1.6%
CC(C)(C)OC(=O)N(CCc1ccccc1)Cc1ccccc1OCc1cccc(NC(=O)C2CCC2)c1	-7.5%
O=C(NC1CC1)C1CCN(C2CCN(C(=O)c3ccc4cccc(F)c4n3)CC2)CC1	-3.0%
Cc1ccc(-c2csc(N(Cc3ccco3)C(=O)c3cccs3)n2)cc1	4.1%
Cc1ccc(C(=O)NCC(c2ccc(F)cc2)N2CCOCC2)s1 (centres undefined)	-9.3%
Cc1ccc(N)cc1O	0.4%
Cc1nnc(C)n1/N=C/c1cccc([N+](=O)[O-])c1	2.1%
CC(NC(=O)c1ccc(OC2CCN(C(=O)c3cccnc3)CC2)cc1)C1CC1 (centres undefined)	-7.0%
Cc1cc(C(=O)COC(=O)c2ccc(NC(=O)CC#N)cc2)c(C)n1C1CC1	9.0%
COCCNC(=O)CSc1nc2cc3c(cc2c(=O)n1Cc1ccc(C(=O)NCCc2ccc(OC)c(OC)c2)cc1)OCO3	0.5%
Cc1ccc(N2CCN(C(=O)c3nn(C)c4c3CSc3ccccc3-4)CC2C)cc1 (centres undefined)	10.5%
Cc1ccsc1/C=C/c1ccc2ccccc2n1	-0.2%
Cc1ccccc1OCC(=O)N/N=C/c1ccc(N2CCOCC2)o1	39.8µM*
Cc1cc(NS(=O)(=O)c2cn(C)nc2C)no1	-1.7%
C=CC[C@@H](CC(=O)NCCO)C(=O)NC[C@H](OC(=O)[C@@H](CC=C)CC(=O)OC(C)(C)C)c1ccccc1	5.9%
COc1ccc(OC)c(S(=O)(=O)N2CCCC(C(=O)N3CCCC3)C2)c1 (centres undefined)	17.7%
CCC(=O)Nc1ccc2c(c1)ncn2-c1ccccc1OC	-10.3%
CCOc1ccccc1-c1nc(-c2cccc(Br)c2)no1	-10.5%

Screening results from PubChem.
